PrP 5UTR inh: inhibition of PrP 5' UTR reporter expression. hit rate 0.35% among 340,000. inhibition, % (test concentration not listed). cell-based PrP 5' UTR mRNA reporter, plate reader;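 active = every replicate at 50% or more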;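 note: 0 = median of the neutral control wells; tested in H4 reporter cells; numbers are from one replicate; inactives centre near -14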
RN4220 kill: S. aureus RN4220 growth inhibition. AID 1259311. hit rate 0.33% among 330,000. inhibition, % (concentration not given with the values). OD600, 16 h;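 active = z-score of -3 or lower and OD600 up to 0.18 on both plates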;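 note: plate controls were untreated cells for no effect and reference antibiotic for full effect; stock transfer was 100 nL into about 80 µL; one replicate is shown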
BJeLR viability: kills HRASV12-expressing BJeLR cells. AID 1554. hit rate 0.17% among 300,000. BJeLR (HRASV12) viability, CellTiter-Glo ATP luminescence, 48 h; reference of the scale not given here. inhibition, % (test concentration not listed);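 active = replicate mean above 50%; inconclusive = above 50% but judged a plate artefact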;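 note: 50 nL library stock added to about 25 µL; numbers are from one replicate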
ugtP null kill: compounds lethal to S. aureus RN4220 ugtP deletion mutant; OD600 growth, 16 h; some inactives read as strong as hits; growth inhibition, % (test concentration not listed); hit rate 0.54% among 330,000;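 active = z-score under -3 and OD600 up to 0.15 on both plates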;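 note: plate controls were untreated wells for no effect and antibiotic for full effect; wells of about 80 µL received 100 nL stock; the first replicate is given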
Bead autofluor: flagged as autofluorescent in microsphere protease counterscreen. compound autofluorescence counterscreen, microsphere flow cytometry; active compounds read high. hit rate 3.1% among 360,000. AID 624483. fluorescence intensity (concentration not given with the values);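 active = at least 3 SD above the mean of all compounds, about 16000 in these data; inconclusive = too few beads counted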;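 note: 100 nL of 1 mM stock went into each well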
Mtb hypoxia inh: reduces hypoxia-regulated biosensor signal in M. tuberculosis; fluorescence inhibition, % (concentration not given with the values); hit rate 0.1% among 300,000; M. tuberculosis hypoxia-regulated fluorescent reporter, fluorescence;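 active = 35 to 45% if threefold the growth effect, above 45% if 1.5-fold the growth effect; inactive = the rest, general growth blockers included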;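 note: wells of about 50 µL received 100 nL stock; 0% = vehicle wells and 100% = reference inhibitor wells; whole bacteria with a GFP reporter of the hypoxia response; strong numbers were not always called active; many hits fall short of the cut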
Mtb hypoxia inh growth: also measured in Mtb hypoxia inh; calls as there; growth inhibition, %; measured here: M. tuberculosis growth (absorbance);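 0% = vehicle and 100% = reference antibiotic; read after six days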
* = called active by the depositor; ? = inconclusive; . = no result given.

1. CCC(C)n1c(O)c(/C=N/Nc2nc3c(c(=O)n(C)c(=O)n3C)n2C)c(=O)[nH]c1=S (stereo not given)
2. Cc1scc(C(=O)Nn2cnnc2)c1-c1ccccc1
3. COc1cc(C2C(C(=O)c3ccc(C)o3)=C(O)C(=O)N2c2cc(C)on2)cc(Br)c1O (stereo not given)
4. O=C(O)c1ccc(NN=Cc2cc(Br)cs2)cc1
5. COc1ccc(C(=O)COC(=O)c2ccccc2O)c(OC)c1
6. COc1cccc(OCC(=O)N2CCC3(CC2)CC(=O)c2ccccc2O3)c1
7. O=C(CCCSc1nc2ccccc2s1)NCc1ccco1
8. CC[C@H](C)NC(=O)c1ccc(Cn2c(=S)[nH]c3c([nH]c4ccc(OC)cc43)c2=O)cc1

entry no.	1	2	3	4	5	6	7	8
PrP 5UTR inh	-4	-25	-27	.	-59	-14	-44	-17
RN4220 kill	-0.9	-1.9	-29	-1.6	5.2	-3.4	-3.5	.
BJeLR viability	-11	.	6	.	.	4	.	-10
ugtP null kill	-1	-7	-3	11	-2	-7	4	.
Bead autofluor	4190	11050	3132	.	2906	.	4310	2062
Mtb hypoxia inh	5	3	19	6	8	-7	.	.
Mtb hypoxia inh growth	-8	9	-19	-11	6	-7	.	.

9. C#CCOCCOCCOCCNc1nc(N2CCN(C(=O)C(CC(N)=O)n3cc(C(N)CC(N)=O)nn3)CC2)nc(N2CCN(C(=O)C(CCCN=C(N)N)n3cc(C(N)C(C)CC)nn3)CC2)n1 (stereo not given)
10. O=C(CCn1c(=O)[nH]c2ccsc2c1=O)N1CCN(Cc2ccc3c(c2)OCO3)CC1
11. Cc1ccc(C(=O)C(C)OC(=O)C2=COCCO2)cc1C (stereo not given)
12. CC(CC(=O)Nc1ccccc1-c1ccccc1)=NNC(=O)COc1ccc(C)cc1Br
13. Cc1ccc(-c2csc(NC(=O)CSc3nc(C)cs3)n2)cc1
14. CCOC(=O)c1c(NC(=S)Nc2ccccc2)sc(C)c1C
15. CSc1ccccc1C(=O)C1CCCN(Cc2c(C)n(C)n(-c3ccccc3)c2=O)C1 (stereo not given)
16. CC(C(=O)NCCN1C(=O)S/C(=C\c2cccnc2)C1=O)N1C(=O)c2ccccc2C1=O (stereo not given)

entry no.	9	10	11	12	13	14	15	16
PrP 5UTR inh	.	9	2	.	-36	2	-22	-16
RN4220 kill	7.5	3.3	-3.7	-2.1	8.9	0.7	5.8	.
BJeLR viability	.	1	10	.	3	4	.	0
ugtP null kill	1	-5	-13	-14	61	-10	8	.
Bead autofluor	.	9404	2447	.	15852	9334	4229	3134
Mtb hypoxia inh	5	-3	-8	7	7	-8	2	.
Mtb hypoxia inh growth	10	-9	-10	4	7	-6	-6	.

17. COc1ccc(C(C(=O)NC(C)(C)C)N(Cc2ccco2)C(=O)CCC(=O)Nc2cc(C)on2)cc1 (stereo not given)
18. C=CCn1c(CNC(=O)c2ccco2)nnc1SCC(=O)c1ccccc1
19. Cc1ccc(-c2nc(=S)c3c(n2Cc2cccnc2)CC(C)(C)OC3)cc1
20. Cc1ccccc1NC(=O)Cn1nc(C(=O)O)c2ccccc2c1=O
21. Cn1cc(-c2nnnn2-c2ccccc2)c(=O)c2ccccc21
22. O=C(COC(=O)CNC(=O)c1ccccc1)Nc1ccccc1Cl
23. C=CCn1c(SCC(=O)OCC)nc(C(F)(F)F)cc1=O
24. O=C(Nc1ccc2[nH]c3c(c2c1)CCCC3)c1ccco1

entry no.	17	18	19	20	21	22	23	24
PrP 5UTR inh	-4	-14	-9	-2	-10	-19	14	-46
RN4220 kill	1.5	2.1	1.6	0.9	1.6	2.2	8.8	-13
BJeLR viability	-14	17	1	-14	-1	3	1	12
ugtP null kill	6	8	4	4	1	0	-6	-10
Bead autofluor	10346	4760	3715	5738	10074	2899	2029	2588
Mtb hypoxia inh	4	5	10	-7	9	-1	-1	23
Mtb hypoxia inh growth	1	9	-1	-3	12	11	7	10

25. OC(CC#CCN1CCCCC1)(c1ccccc1)c1ccccc1
26. Cn1cc(C(=O)c2ccccc2)c2ccccc21
27. Cc1sc2ncnc(SCC(=O)N3CCCC3)c2c1C
28. Cc1c(NC(=O)Nc2ccc(C(C)C)cc2)c(=O)n(-c2ccccc2)n1C
29. Cc1ccc(NC(=O)CSc2ccccc2)cc1S(=O)(=O)N1CCOCC1
30. COc1ccc(/C=C/C(=O)N2CCN(c3ccccn3)CC2)c2ccccc12
31. COC(=O)c1c(NC(=O)CN2C(=O)C(=O)N(C(C)C)C2=O)sc(C)c1C
32. Cn1nc(C(=O)NC2CCCCC2)c2ccccc2c1=O

entry no.	25	26	27	28	29	30	31	32
PrP 5UTR inh	-15	-13	-10	-29	-8	-31	-12	-24
RN4220 kill	-4.1	5.3	4.5	0.5	1.7	5.7	0.2	2.2
BJeLR viability	-2	7	1	2	.	-10	.	-12
ugtP null kill	12	-4	-1	7	1	2	7	3
Bead autofluor	4028	5986	3258	5458	?	4672	2968	21828*
Mtb hypoxia inh	4	6	.	1	-1	-1	8	9
Mtb hypoxia inh growth	7	8	.	13	-5	14	4	-4

33. CCOC(=O)N1CCc2c(sc(NC(C)=O)c2C(N)=O)C1
34. CCc1cc2cc(C)cc(C)c2nc1SCC(=O)Nc1cc(C)on1
35. Nc1ccccc1/C=C/c1ccccc1N
36. Oc1ccc(CN2CCc3ccccc3C2)c2cccnc12
37. O=C(NCc1ccccn1)c1cccc([N+](=O)[O-])c1
38. Cc1ccc(Cl)cc1NS(=O)(=O)c1cn(C)nc1C
39. CCOc1ccc(N2C(=O)CC(/C=C3/N(C)c4ccccc4C3(C)C)C2=O)cc1 (stereo not given)
40. COc1ccc(CCC(=O)NNC(=O)Nc2ccc(C(C)=O)cc2)cc1

entry no.	33	34	35	36	37	38	39	40
PrP 5UTR inh	-11	-16	-74	17	-16	-19	4	-17
RN4220 kill	.	4.2	2.2	24	0.8	8.0	4.7	1.4
BJeLR viability	-10	8	.	13	0	6	-6	2
ugtP null kill	.	11	3	14	7	4	-3	0
Bead autofluor	5118	4748	2952	16689*	24684*	5517	2652	6413
Mtb hypoxia inh	.	-1	11	7	10	4	-1	11
Mtb hypoxia inh growth	.	1	8	9	11	2	3	5

Compound profiles, from the list above. Order of screens: PrP 5UTR inh | RN4220 kill | BJeLR viability | ugtP null kill | Bead autofluor | Mtb hypoxia inh | Mtb hypoxia inh growth
COc1ccc(CCC(=O)NNC(=O)Nc2ccc(C(C)=O)cc2)cc1 across the screens: -17 | 1.4 | 2 | 0 | 6413 | 11 | 5
O=C(NCc1ccccn1)c1cccc([N+](=O)[O-])c1 across the screens: -16 | 0.8 | 0 | 7 | 24684* | 10 | 11
CCOc1ccc(N2C(=O)CC(/C=C3/N(C)c4ccccc4C3(C)C)C2=O)cc1 (stereo not given) across the screens: 4 | 4.7 | -6 | -3 | 2652 | -1 | 3

Further entries follow.
41. COc1ccc(C=Nn2nnnc2N)cc1OC
42. Cc1sc2nc(COC(=O)c3cccc(OC(F)F)c3)[nH]c(=O)c2c1C
43. CC1CCCCN1CCCNC(=O)c1c(O)nc2ccccn2c1=O (stereo not given)
44. O=C(O)COc1ccc2c(c1)O/C(=C\c1ccco1)C2=O
45. Nc1nn2cc(-c3ccccc3)nc2c2ccccc12
46. N#C/C(=C\c1ccc([N+](=O)[O-])cc1)C(=O)Nc1ccccc1O
47. O=C(CC1CCCC1)NNC(=O)c1ccc(F)cc1
48. CCCc1cc(=O)[nH]c(SCCc2ccccc2)n1

entry no.	41	42	43	44	45	46	47	48
PrP 5UTR inh	.	-11	-9	-20	-81	-79	-29	-8
RN4220 kill	4.2	0.5	6.6	2.0	-11	2.6	-0.1	6.9
BJeLR viability	.	8	8	-4	14	3	-9	-3
ugtP null kill	4	8	4	0	9	0	3	3
Bead autofluor	.	4333	6296	3173	4297	3145	5182	3677
Mtb hypoxia inh	5	0	11	-8	10	4	6	3
Mtb hypoxia inh growth	10	-9	4	-3	-9	-7	13	2

49. COc1cc(O)c2c(=O)c3c(OC)c(O)ccc3oc2c1
50. CCOc1ccccc1-n1c(SCC(=O)N(CC)CC)nnc1-c1ccccn1
51. O=C(CSc1nnc2ccccn12)Nc1ccc2c(c1)OCCO2
52. Cc1ccc(NC(=O)CCC(=O)N/N=C/C=C/c2ccccc2)cc1
53. COc1ccc(CNC(=O)C2CCN(S(=O)(=O)c3ccc(SC)cc3)CC2)cc1
54. COc1ccc(C(=O)N/C(=C\c2ccc3c(c2)OCO3)C(=O)Nc2ccc(C(=O)O)cc2)cc1
55. Cc1c(CCO)c(=O)[nH]n1S(=O)(=O)c1ccccc1
56. CCOc1cc(N2CCOCC2)c(OCC)cc1NC(=O)CN1CCCC1

entry no.	49	50	51	52	53	54	55	56
PrP 5UTR inh	-27	-4	-51	-3	-27	-14	-10	-26
RN4220 kill	3.2	1.5	0.8	.	0.0	3.3	3.3	1.6
BJeLR viability	10	-2	1	2	-2	3	-3	1
ugtP null kill	5	5	-1	.	12	0	-2	2
Bead autofluor	3599	2714	4219	2518	5120	3157	4456	2563
Mtb hypoxia inh	8	.	2	.	4	6	0	5
Mtb hypoxia inh growth	11	.	13	.	8	22	-3	0

57. CCC(Cc1ccccc1)NC(=O)CCc1ccccc1 (stereo not given)
58. N#C/C(=C\c1ccc(-c2ccc([N+](=O)[O-])cc2)o1)C(=O)Nc1nc(-c2cccs2)cs1
59. CCc1ccc(C2CC(c3ccccc3Cl)Nc3nc(N)nn32)cc1 (stereo not given)
60. CCC1(CC)NC(=O)N(CC(=O)OCC(=O)c2ccccc2OC)C1=O
61. CCC1(CCCC(=O)c2ccc(F)cc2)C(=O)NC(=S)NC1=O
62. CC(C)C[C@H](NC(=O)c1nc[nH]c1C(=O)N[C@@H](CC(C)C)C(=O)OCc1ccccc1)C(=O)OCc1ccccc1
63. CCCc1nnc(NC(=O)CCC(=O)NC2CC2)s1
64. Cc1ccc(Oc2ccc(NC(=O)c3ccco3)cc2)cc1

entry no.	57	58	59	60	61	62	63	64
PrP 5UTR inh	-4	-28	-3	-14	-16	-6	3	-34
RN4220 kill	3.3	-6.7	0.5	4.3	6.1	.	0.4	-8.3
BJeLR viability	25	12	3	2	-1	8	5	0
ugtP null kill	14	-5	15	8	3	.	-3	30
Bead autofluor	3773	5096	5052	6179	2059	2788	4614	16687*
Mtb hypoxia inh	14	-5	.	7	1	.	1	-2
Mtb hypoxia inh growth	18	-20	.	6	2	.	-1	-40

65. COc1cccc(Nc2nc(-c3sc(NC(=O)CC(C)C)nc3C)cs2)c1
66. Cc1ccc(SCc2cc(=O)[nH]c(N3CCN(Cc4ccccc4)CC3)n2)cc1
67. O=C(O)c1ccccc1-c1ccccc1C(=O)NCCCO
68. Cn1c(-c2ccco2)n[nH]c1=S
69. Cc1cn(C)c(=O)n(C)c1=O

entry no.	65	66	67	68	69
PrP 5UTR inh	-1	-27	9	17	-15
RN4220 kill	-5.8	-2.0	0.6	0.1	5.9
BJeLR viability	-12	-5	-10	4	-10
ugtP null kill	-51	0	4	6	-7
Bead autofluor	4301	4185	20852*	3022	5495
Mtb hypoxia inh	2	.	5	8	.
Mtb hypoxia inh growth	3	.	7	6	.

Source: PubChem

This is a random part of the collection; overall some 4.1% were active at least once.
